UCH37 DUB inh = blocks the human deubiquitinase UCH37. Q9Y5K5. purified proteasome/UCH37, Ub-AMC cleavage fluorescence. inhibition, % (test concentration not listed). hit rate 0.33% among 330,000. AID 588478;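 active means mean of two replicates above 20%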;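 further: 0% = compound-free wells with enzyme and 100% = wells lacking proteasome; stock transfer was 100 nL into about 20 µL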
Target sequence (Q9Y5K5 whole entry, looked up): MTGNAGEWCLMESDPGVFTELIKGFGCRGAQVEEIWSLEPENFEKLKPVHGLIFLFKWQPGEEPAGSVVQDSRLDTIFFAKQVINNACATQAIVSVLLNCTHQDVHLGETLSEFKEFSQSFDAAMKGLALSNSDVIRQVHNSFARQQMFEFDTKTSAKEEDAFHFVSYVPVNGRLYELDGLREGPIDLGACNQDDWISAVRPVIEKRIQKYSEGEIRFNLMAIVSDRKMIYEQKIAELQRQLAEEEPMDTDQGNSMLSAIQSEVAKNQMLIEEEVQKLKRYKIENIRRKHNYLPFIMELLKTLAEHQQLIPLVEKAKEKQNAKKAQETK
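System: Proteasome-associated human UCH37 deubiquitinase; Input: 0.15 nM proteasome in added enzyme buffer; Also added: Ub-AMC substrate from 1 µM stock; Incubation: 30 min compound-proteasome preincubation then 25 min substrate reaction, room temperature; Detection: fluorescence, ex 355 nm, em 460 nm; Read-out: % inhibition of Ub-AMC cleavage fluorescence; Benchmarks: no-proteasome and no-compound wells.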
B2AR ag = activates human beta-2 adrenergic receptor causing internalization; P07550; response, % (no concentration beside the values); hit rate 0.43% among 340,000; Am2.2-beta2AR cells, FAP receptor internalization, flow cytometry; reference of the scale not given here;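 active means response above a set limit, near 3 SD of response in nonfluorescent compounds, cut at about 42% in these data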;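 further: stock transfer was 100 nL into about 11 µL; a reference agonist was the positive control; negative values mostly stem from fluorescent compounds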
HNF4A DNA FP = change in binding of human HNF4 alpha to DNA; P41235; HNF4a-FITC DNA binding, fluorescence polarization, 1 h; hit rate 0.3% among 360,000; AID 1224865; activity change, % at 10 µM; in the data active means activity change above about 30%, passing the limit was not always enough;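 further: controls were the assay level and a saturating level of protein; the project sought stronger binding though the title names inhibitors; some compounds called inactive have numbers as strong as hits; positive values seem to mean higher polarization but the record does not say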
Target sequence (P41235 whole entry, looked up): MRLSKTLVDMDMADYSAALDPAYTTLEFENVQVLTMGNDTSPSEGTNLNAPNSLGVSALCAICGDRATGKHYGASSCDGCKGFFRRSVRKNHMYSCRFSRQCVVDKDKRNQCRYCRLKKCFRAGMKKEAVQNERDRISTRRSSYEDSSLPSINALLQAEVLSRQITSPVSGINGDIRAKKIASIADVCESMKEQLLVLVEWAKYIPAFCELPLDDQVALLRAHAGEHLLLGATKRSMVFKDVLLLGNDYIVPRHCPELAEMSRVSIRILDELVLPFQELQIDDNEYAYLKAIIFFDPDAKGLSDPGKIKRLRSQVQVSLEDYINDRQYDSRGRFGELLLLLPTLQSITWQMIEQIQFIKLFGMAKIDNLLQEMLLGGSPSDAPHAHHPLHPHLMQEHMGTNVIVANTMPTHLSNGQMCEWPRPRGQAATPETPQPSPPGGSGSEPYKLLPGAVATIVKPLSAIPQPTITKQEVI
LANA-H2B inh = blocks KSHV LANA binding to histone H2A/H2B; Q9QR71; cell-free LANA-H2A/H2B peptide, fluorescence polarization; inhibition, % (no concentration beside the values); hit rate 0.6% among 320,000; AID 2629; in the data active means inhibition mostly above about 10%, no sharp cut-off; inactive means mostly below about 6.7%;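 further: stock transfer was 7.5 nL into about 10 µL; 0% = median of vehicle wells and 100% = median of positive control wells; one replicate is shown; the record names a cut of 25% in any replicate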
Bfl-1 A1 inh = inhibitors of the anti-apoptotic protein A1, read as caspase activation | MEF A1-2A-BIM cells, Caspase-Glo 3/7 luminescence, 3 h; percent of clofoctol response, vehicle zero | hit rate 0.066% among 330,000 | AID 2462 | caspase activation, % (concentration not given with the values);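 active means over half of replicate activation scores above 10%, or exactly half above 10 with the replicate mean above 10; inconclusive means replicate mean below 10 yet half the replicates above 10; inactive means over half of replicates below 10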;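 further: wells of about 30 µL received 50 nL stock; many hits fall short of the cut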
Vif TR-FRET = inhibitors of Vif binding to APOBEC3G peptide, primary screen, biochemical, TR-FRET, GST-Vif 1-94, biotin-A3G peptide, dose response retest (AID 1117319) | hit rate 0.57% among 260,000 | inhibition, %, or IC50 in µM where a hit was titrated | TR-FRET GST-Vif / biotin-A3G peptide binding; higher % means a stronger effect; test concentration not given here; strong numbers were not always called active;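 active means above the screen mean plus three standard deviations and confirmed in dose response; inconclusive means results disagree or hit not tested in dose response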;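 further: Vif residues 1-94 fused to GST binding biotinylated APOBEC3G peptide 110-148; 0% = full assay without inhibitor and 100% = GST in place of GST-Vif; retest series ran down from 100 µM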
E coli growth = E. coli growth inhibition. Escherichia coli growth, OD600, 23 h; hits give low values. AID 1053175. hit rate 0.21% among 330,000. OD600 absorbance (no concentration beside the values);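 active means OD600 absorbance below the run mean of sample wells minus 3.6 SD, in any replicate, cut at about 0.56 in these data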;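 further: stock transfer was 300 nL into about 60 µL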
* = called active by the depositor; ? = inconclusive; . = not tested or not shown.

SMILES	UCH37 DUB inh	B2AR ag	HNF4A DNA FP	LANA-H2B inh	Bfl-1 A1 inh	Vif TR-FRET	E coli growth
Cc1ccc(SCC(=O)N2CC(C)OC(C)C2)cc1 (stereo not drawn)	2.5	-3	-5.0	-2.5	-0.8	7%	0.72
Cc1cc2c(cc1S(=O)(=O)NCc1ccccc1)n(C)c(=O)c(=O)n2C	-1.2	-1	1.3	-0.5	-0.1	-3%	0.71
CC1CN(C(=O)c2cc3cc(Cl)ccc3[nH]2)CC(C)O1 (stereo not drawn)	3.5	2	9.8	-4.0	0.3	.	0.68
O=C(OCc1nnc(-c2ccccc2)o1)c1ccc(Cl)cc1	0.2	-1	0.5	-1.2	-0.1	-4%	0.7
O=C(O)CCC(=O)NNC(=O)COc1ccc(Cl)cc1Cl	0.0	7	1.6	-0.5	?	-6%	0.65
O=c1cc(-c2ccc([N+](=O)[O-])cc2)nc2cc(-c3ccc(F)cc3)[nH]n12	1.1	-3	-2.6	4.8	?	.	0.7
O=C(N/N=C/c1ccc(O)cc1)c1cc(C23CC4CC(CC(C4)C2)C3)[nH]n1	.	19	1.4	-1.6	-0.1	5%	.
CCN(CC(=O)Nc1ccc2c(c1)OCCO2)C(=O)c1ccc(Cl)cc1Cl	4.0	3	6.5	-6.4	-4.4	4%	0.69
CC(=O)C1=C(O)C(=O)N(CCN(C)C)C1c1ccc(Cl)cc1 (stereo not drawn)	24*	-10	-0.8	.	.	-1%	0.71
O=C(NCCSc1ccc(Cl)cc1)c1ccc(CN2CCOCC2)cc1	-0.2	-2	-1.1	0.7	2.3	-5%	0.67
O=C(O)c1ccccc1-c1nc2ccccc2[nH]1	-1.4	-4	0.4	-0.9	-0.7	18%	0.72
CCS(=O)(=O)NC(C)C(c1cccs1)N1CCN(c2ccc(OC)cc2)CC1 (stereo not drawn)	2.0	22	-6.2	2.6	0.9	6%	0.71
CCc1ccc(N(C2C=CS(=O)(=O)C2)S(=O)(=O)c2ccc(C)cc2)cc1 (stereo not drawn)	0.7	-5	-1.6	4.3	0.2	82%	0.72
C=CCn1cc(C(C)=O)c(=O)[nH]c1=O	-0.3	-4	0.5	2.2	-1.7	-3%	0.63
Cc1cccc(C)c1Nc1c(-c2ccsc2)nc2ncccn12	2.7	-6	5.2	0.6	0.5	.	0.66
O=C(NC1CCCC1)C(c1cccnc1)N(Cc1ccc(F)cc1)C(=O)c1csnn1 (stereo not drawn)	-1.8	-6	-5.8	-2.5	0.0	-4%	0.66
CN(C)c1ccc(NC2=C([N+](=O)[O-])CS(=O)(=O)C2)cc1	6.5	9	0.9	0.8	0.9	?	0.67
O=C(NCc1ccc(F)cc1)C(c1ccc(Cl)cc1)N(C(=O)c1csnn1)C1CC1 (stereo not drawn)	4.2	0	-3.0	3.1	0.4	.	0.66
CCC1(CC)C(=O)C2=C3C1[C@H](C(=O)OC)CC(C(=O)OC)C[C@H]3n1c(=O)n(-c3ccccc3)c(=O)n1[C@H]2C (stereo partly drawn)	1.6	.	.	-1.1	0.0	.	.
CC1=C(C(=O)Nc2cccnc2)C(c2ccc(C(C)C)cc2)n2ncnc2N1 (stereo not drawn)	7.2	8	3.1	.	.	4%	0.72
CC(C)(C)[C@@H]1C=C(C(=O)O)O[C@H](OCc2ccc(CO)cc2)C1	1.8	8	-7.2	1.7	0.2	-3%	.
CCCCN1C(=O)C(=O)N(CC(=O)Nc2cc(Cl)ccc2OC)C1=O	5.4	2	0.3	.	.	.	0.65
CC(=O)Nc1ccc(S(=O)(=O)Nc2ccc3c(c2)OCCO3)cc1	2.5	-8	2.1	0.8	-0.9	-2%	0.69
Nc1nc(-c2ccc3c(c2)CCCC3)cs1	3.1	-1	1.6	1.2	-2.6	-1%	0.61
Cc1ccc(C(=O)NCCc2nnc3ccc(SCC(=O)N4CCCC4)nn23)cc1	-0.8	-3	1.6	-5.7	0.9	.	0.7

Nothing new here: two of the compounds above.
SMILES	UCH37 DUB inh	B2AR ag	HNF4A DNA FP	LANA-H2B inh	Bfl-1 A1 inh	Vif TR-FRET	E coli growth
Nc1nc(-c2ccc3c(c2)CCCC3)cs1	3.1	-1	1.6	1.2	-2.6	-1%	0.61
Cc1ccc(C(=O)NCCc2nnc3ccc(SCC(=O)N4CCCC4)nn23)cc1	-0.8	-3	1.6	-5.7	0.9	.	0.7

Going on with the list.
SMILES	UCH37 DUB inh	B2AR ag	HNF4A DNA FP	LANA-H2B inh	Bfl-1 A1 inh	Vif TR-FRET	E coli growth
COC(=O)c1cccc(NS(=O)(=O)c2ccc(OC)c(C(=O)N3CCOCC3)c2)c1C	1.4	-5	-0.8	1.1	-0.1	.	0.72
O=C(COC(=O)CCc1nc2ccccc2s1)Nc1ccc(Cl)cn1	-1.5	-1	2.7	-6.3	0.4	18%	0.74
Fc1ccc(C2CCCN2Cc2nc(-c3cnccn3)no2)cc1 (stereo not drawn)	-0.9	2	1.9	-5.7	0.2	.	0.69
Cc1ccc2c(c1)S(=O)(=O)c1ccc3ccccc3c1N2	-22	0	6.1	.	.	-10%	0.75
O=C(O)Cc1ccc(NC(=O)CCN2C(=O)c3ccc([N+](=O)[O-])cc3C2=O)cc1	0.7	-3	2.3	.	.	.	0.68
CN(CC(=O)Nn1cnnc1)S(=O)(=O)c1ccc(Br)cc1	1.2	4	15	-0.8	-1.2	-8%	0.67
Cc1ccc(C(=O)N2CCN(c3ncc(C(F)(F)F)cc3Cl)CC2)s1	3.2	-6	-1.3	8.3	0.7	.	0.67
CCCc1c(C)[nH]c2ccc(C(=O)O)cc2c1=S	2.0	-1	-68	.	.	30%	0.7
COc1ccccc1N(Cc1ccccc1)S(=O)(=O)c1cc(C(=O)O)ccc1Cl	-0.2	2	0.5	0.1	-0.2	12%	0.7
O=C(CN(C(=O)CNS(=O)(=O)c1ccccc1)c1ccc(Cl)cc1)NCC1CCCO1 (stereo not drawn)	6.7	-2	-1.5	0.4	0.5	.	0.69
Cc1nnc2sc(COc3ccccc3)nn2c1=O	5.5	-41	0.9	4.9	0.1	1%	0.68
Cc1ccc(O)c(C(=O)c2cnc3c(c2)COc2ccccc2-3)c1	-1.7	-5	-1.6	-2.3	0.1	2%	0.71
CCOC(=O)c1c(NC(=O)CSc2nc3ccccc3c(=O)n2-c2ccc(F)cc2)sc(C(C)=O)c1C	3.2	0	7.4	-3.8	0.1	.	0.7
O=C(CN1CCCCC1)Nc1ccccc1NC(=O)CN1CCCCC1	3.9	-1	1.9	-1.9	0.2	9%	0.7
Cn1c(NC(=O)Cc2ccc(F)cc2)cc(=O)n(C)c1=O	4.3	12	1.4	-1.8	0.1	?	0.71
COc1ccc2c(CC(=O)OCC(=O)Nc3sc4c(c3C#N)CCC(C)C4)coc2c1 (stereo not drawn)	3.9	-5	-2.4	-2.6	-0.6	-19%	0.68
Cc1nn(-c2ccccc2)c(C)c1C(=O)NCc1cccs1	-2.9	0	-0.1	0.8	0.6	.	0.71
CCC1CCc2sc(C(=O)NCC(c3ccc(OC)cc3)N3CCOCC3)cc2C1 (stereo not drawn)	-2.9	-2	0.3	2.9	-0.3	-13%	0.65
Cc1ccccc1NC(=O)C(C)c1cccc(C(=O)c2ccccc2)c1 (stereo not drawn)	2.1	-3	-4.0	1.5	0.6	-1%	0.69
CC1CN(c2snnc2C=C2C(=O)OC(C)(C)OC2=O)CC(C)O1 (stereo not drawn)	5.2	-1	-0.8	-2.0	0.9	.	0.73
Cc1ccc(NC(=O)c2cc(F)c(F)cc2Cl)nc1	1.3	5	0.9	1.3	-4.6	0%	0.71
O=S(=O)(CCSc1nc2ccccc2o1)Cc1ccccc1	0.1	-13	-2.4	-3.5	0.5	3%	0.7
CCOc1ccc(NC(=O)C2CC(=O)N(CCc3ccc(OC)c(OC)c3)C2)cc1OCC (stereo not drawn)	2.6	19	-5.1	-1.3	0.0	-3%	0.73
Cc1ccc(C(=O)c2cn(-c3ccc(F)c(Cl)c3)nn2)cc1	0.0	24	-2.5	2.6	-3.4	0%	0.64
Cn1c(COc2ccc(Cl)cc2)nnc1SCC(=O)NC1CCCC1	1.1	0	3.9	6.1	-0.5	.	0.64

3 compounds from above, arranged by molar mass, high to low:
SMILES	UCH37 DUB inh	B2AR ag	HNF4A DNA FP	LANA-H2B inh	Bfl-1 A1 inh	Vif TR-FRET	E coli growth
O=C(CN(C(=O)CNS(=O)(=O)c1ccccc1)c1ccc(Cl)cc1)NCC1CCCO1 (stereo not drawn)	6.7	-2	-1.5	0.4	0.5	.	0.69
Cn1c(COc2ccc(Cl)cc2)nnc1SCC(=O)NC1CCCC1	1.1	0	3.9	6.1	-0.5	.	0.64
CN(CC(=O)Nn1cnnc1)S(=O)(=O)c1ccc(Br)cc1	1.2	4	15	-0.8	-1.2	-8%	0.67

Going on with the list.
SMILES	UCH37 DUB inh	B2AR ag	HNF4A DNA FP	LANA-H2B inh	Bfl-1 A1 inh	Vif TR-FRET	E coli growth
C[C@H](CO)N1C[C@H](C)[C@@H](CN(C)Cc2ccc(C(=O)O)cc2)Oc2c(NS(=O)(=O)c3cn(C)cn3)cccc2C1=O	0.4	-3	0.7	-2.4	1.1	.	.
CCCNC(=O)CCCN1C(=O)c2ccccc2Sc2ncccc21	4.4	-2	-1.1	0.8	0.7	-4%	0.68
CC[n+]1c(/C=C/c2ccc(N(C)C)cc2)ccc2ccccc21	23*	-82	10	10.0	-2.4	-45%	0.47*
CCCCN1C(=O)CCC(C(=O)O)C1c1ccc(OC)cc1 (stereo not drawn)	1.8	4	-0.5	0.7	1.4	0%	0.68
CCc1ccc(N2CC(C(=O)NCC(C)(C)N3CCOCC3)CC2=O)cc1 (stereo not drawn)	1.1	-6	5.7	-1.7	0.1	-14%	0.66
CCOC(=O)Cc1c(Cl)c2ccccc2[nH]c1=O	-3.3	-5	2.9	-4.7	0.0	12%	0.72
Cc1cc(=O)[nH]c(N/N=C/c2ccc3c(c2)OCCO3)n1	.	15	1.5	-4.5	-1.5	9%	.
COc1cc(SC)ccc1C(=O)Nc1ccc(OCC(=O)N2CCOCC2)cc1	1.3	3	-1.0	.	.	.	0.64
COC(=O)Cc1cc(=O)[nH]c(/N=C(\N)Nc2ccc(C)cc2C)n1	.	1	-1.9	2.0	0.1	6%	.
CC#CCN1c2ccccc2[C@]23C[C@@H](C(=O)OC)N(C(=O)OCC)C2=NC(C(=O)OC)=C(C(=O)OC)[C@H]13	3.9	-3	1.1	2.8	-0.5	7%	.
O=C(Nc1ccccc1)c1ccc[nH]1	4.4	1	3.0	-16	-1.7	18%	0.68
Cc1cccc(C(C)n2nnc3ccccc32)c1O (stereo not drawn)	0.4	2	2.2	3.5	0.2	.	0.63
O=S(=O)(c1ccccc1)N1CCc2ccccc21	5.8	-30	31	-4.9	1.4	.	0.66
Cc1cc(NC(=O)CC(C)C)c(=O)n(Cc2cccc(F)c2)c1	2.6	-12	1.0	-2.8	0.2	.	0.71
O=C(NCc1cccnc1)C1CC(c2ccc(F)cc2)=NO1 (stereo not drawn)	3.6	-2	-2.1	-1.0	0.7	-3%	0.7
COC(=O)C1CCCN1C(=O)COc1ccc(Cl)cc1Br (stereo not drawn)	3.1	-3	0.1	-3.1	-0.5	-6%	0.67
COc1ccc(OCc2nnc(SC(C)C(=O)Nc3ccc(N4CCOCC4)cc3)n2C)cc1 (stereo not drawn)	6.4	-2	0.6	.	.	.	0.69
CC(=O)Nc1ccc(S(=O)(=O)N2CCN(C(=O)c3ccccc3F)CC2)cc1	3.1	0	0.5	-3.4	-0.6	-6%	0.69
COc1cccc(C2C(C(C)=O)=C(O)C(=O)N2Cc2ccco2)c1 (stereo not drawn)	8.0	1	-0.5	1.4	0.9	5%	0.66
O=C(NCCCn1ccnc1)c1ccco1	2.1	9	0.1	-1.3	-0.2	3%	0.64

Source: PubChem BioAssay
